MARV entry inh: qHTS for inhibitors of binding or entry into cells for Marburg Virus; AID 540276, 2011; Marburg virus pseudotyped entry inhibition, cell reporter; control for the full effect not named in the record; about a third of the inactives were read at about 46 µM; 300,000 compounds, 1.8% hits; Potency, µM (titrated, usually from 37.8 µM), for the others: at the highest dose activity change, negative = inhibition, hits mostly inhibitors; active = well fitted inhibition curve with a large enough effect; inconclusive = small, poorly fitted or top-dose-only effect, or effect the other way; inactive = flat fitted curve, though single readings scatter; tested in HEK293 cells; about a fifth of its hits are not listed in these tables; further: on the % scale 0 is the no-effect control and ±100 the full control effect; luciferase read-out
Lassa entry inh: qHTS for Inhibitors of binding or entry into cells for Lassa Virus; Lassa virus pseudotype entry inhibition, cell reporter; control for the full effect not named in the record; Potency, µM (highest dose often 37.9 µM), inactives show at the top dose activity change, negative = inhibition, actives largely listed as inhibitors; 300,000 compounds, 1.2% hits; AID 540256, 2011; active means well fitted inhibition curve with a large enough effect; inconclusive means small, poorly fitted or top-dose-only effect, or effect the other way; inactive means flat fitted curve, though single readings scatter; tested in HEK293 cells; further: on the % scale 0 is the no-effect control and ±100 the full control effect; nearly all actives have a fitted effect of over 50% in size; luciferase read-out
StopGo reporter: High Throughput Screening for Foot and Mouth Disease Virus Antivirals; human cells with a luciferase reporter of 2A StopGo recoding; control for the full effect not named in the record; Potency, µM (top dose mostly 57.9 µM), for the others: top-dose signal change, negative = less light; 410,000 compounds, 1.2% hits; AID 1159524, 2015; active = well fitted falling curve with a large enough effect; inconclusive = small, poorly fitted or top-dose-only effect; inactive = no such curve, though single readings can be large or run the other way; tested in HEK293T cells; further: on the % scale 0 is the no-effect control and ±100 the full control effect; nearly all actives have a fitted effect of over 45% in size; luciferase light after 4 h
RE007 growth inh: qHTS Assay for Inhibitors of the HIV-1 protein Vpr. S. pombe RE007 Vpr strain, BacTiter-Glo ATP luminescence, 24 h; control for the full effect not named in the record. Potency, µM (top dose mostly 92.2 µM), inactives show at the highest dose activity change, negative = less growth. 360,000 compounds, 0.21% hits. AID 651644, 2012; active = well fitted falling curve with a large enough effect; inconclusive = small, poorly fitted or top-dose-only effect; inactive = no such curve, though single readings can be large or run the other way;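 further: on the % scale 0 is the no-effect control and ±100 the full control effect; nearly all actives have a fitted effect of over 50% in size; the assay follows cell death caused by Vpr and the record does not say whether a fall means rescue or toxicity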
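Fission yeast RE007 carrying one integrated HIV-1 vpr copy, seeded at OD 0.01 in PMG+AL medium with 23 nL pinned compound. Grown 24 h at 30 degrees; viability read by BacTiter-Glo luminescence after 5 min.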
SARS PLpro yeast: qHTS of Yeast-based Assay for SARS-CoV PLP. S. cerevisiae expressing SARS-CoV PLpro, growth rescue; control for the full effect not named in the record. Potency, µM (top dose mostly 32.9 µM), inactives show at the highest dose activity, positive = growth rescue. 330,000 compounds, 0.19% hits; further: 0% is about no effect; nearly all actives have a fitted effect of over 55% in size; growth read by luminescence after 48 h
NS1 inh: qHTS Assay for Inhibitors of Influenza NS1 Protein Function. AID 2326, 2010. Potency, µM (top dose mostly 46.1 µM), for inactives: at the top dose activity, positive = more growth. S. cerevisiae slowed by influenza A NS1, growth recovery by OD600. 270,000 compounds, 0.4% hits; further: actives are rising curves; nearly all actives have a fitted effect of over 50% in size
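Read-out: OD600 growth recovery of NS1-expressing budding yeast. Cells grown overnight at 30C in -URA glucose medium, washed, resuspended and diluted 1:100 in 2% galactose assay medium, pH 6.0. Same strain lacking NS1 served as positive control.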
Cruzain inh noDet: qHTS Assay for Promiscuous and Specific Inhibitors of Cruzain (without detergent) | Cruzipain (Trypanosoma cruzi), P25779 | purified cruzain, Z-FR-AMC fluorescence, no detergent | Potency, µM, without a hit: max response, negative = inhibition, hits mostly inhibitors | 200,000 compounds, 2.3% hits | AID 1476, 2009; active means well fitted curve in the direction sought with a large enough effect; inconclusive means small, poorly fitted or top-dose-only effect, or another doubt; inactive means no such curve, though single readings can be large; an effect the other way counts as inactive or inconclusive;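 further: plate controls were enzyme without inhibitor for no effect and buffer without enzyme for full effect; nearly all actives have a fitted effect of over 40% in size; top concentration of the series not given in the record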
Target sequence (P25779 123-467 limits assumed): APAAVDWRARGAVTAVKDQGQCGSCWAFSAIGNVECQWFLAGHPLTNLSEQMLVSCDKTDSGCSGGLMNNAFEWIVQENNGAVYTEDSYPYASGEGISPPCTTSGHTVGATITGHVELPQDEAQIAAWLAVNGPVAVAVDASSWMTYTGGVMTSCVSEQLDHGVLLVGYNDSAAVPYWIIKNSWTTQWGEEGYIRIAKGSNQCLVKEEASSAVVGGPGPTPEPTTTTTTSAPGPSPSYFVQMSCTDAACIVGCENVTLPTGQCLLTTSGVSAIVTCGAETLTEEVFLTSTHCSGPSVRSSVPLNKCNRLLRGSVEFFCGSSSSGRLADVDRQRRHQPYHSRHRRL
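Purified cruzain at 1.5 nM, pre-incubated 15 min with compound at room temperature in 100 mM sodium acetate pH 5.5, 5 mM DTT, 0.00005% Triton X-100. Reaction started with 2 uM Z-FR-AMC; AMC fluorescence increase over 60 s gives rate.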
Cruzain inh Det: qHTS Assay for Promiscuous and Specific Inhibitors of Cruzain (with detergent). 200,000 compounds, 0.43% hits. Cruzipain (Trypanosoma cruzi), P25779. purified cruzain, Z-FR-AMC fluorescence, 0.01% Triton. Potency, µM, inactives show max response, negative = inhibition, most hits filed as inhibitors. AID 1478, 2009; active means well fitted curve in the direction sought with a large enough effect; inconclusive means small, poorly fitted or top-dose-only effect, or another doubt; inactive means no such curve, though single readings can be large; an effect the other way counts as inactive or inconclusive;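 further: plate controls were neutral wells for no effect and buffer without enzyme for full effect; nearly all actives have a fitted effect of over 40% in size; top concentration of the series not given in the record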
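Steps: dispense cruzain (1.5 nM final) in acetate buffer pH 5.5 with DTT and 0.01% Triton X-100; pin-transfer compounds; incubate 15 min RT; add Z-FR-AMC (2 uM final); read fluorescence every 30 s, using the 60 s intensity change.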
The depositor's hits bear a star; u = inconclusive; x = not tested or not shown; & = joins results of further samples; [ ] = dose if it differs, or a comment. Unless noted, the call rests on the fitted dose curve; in most records, active means well fitted rising curve with a large enough effect; inconclusive means small, poorly fitted or top-dose-only effect; inactive means no such curve, though single readings can be large or run the other way. Potency means the concentration at half of the fitted maximal effect. This is a random part of the collection (roughly 4.7% active in at least one column).

SMILES	MARV entry inh	Lassa entry inh	StopGo reporter	RE007 growth inh	SARS PLpro yeast	NS1 inh	Cruzain inh noDet	Cruzain inh Det
Nc1nc(N)c2ncc(C(=O)CCc3ccccc3)nc2n1	9%[46.1 µM]	7%	-16%	0%	-4%	-2%	x	x
CN1CCN(C(=S)c2ccc(N(C)C)cc2)CC1	9%	-9%	25%	-4%	6%	5%	-5%	-0.9%
COc1ccc(C(=O)NCC(=O)N2CCC(Cc3ccccc3)CC2)cc1OC	-24%	-25%	u	-3%	4%	x	x	x
Cc1ccc(C=C2C(=O)c3ccccc3C2=O)s1	-1%	6%	50%[activator]	u	-28%	-50%	0%	-7.3%
COc1ccc(S(=O)(=O)NCCc2ccccc2)cc1	14%	4%	101%[activator]	10%	0%	-10%	8%	3.8%
COc1cccc(CNC(=O)c2c(C)oc3ncnc(N4CCOCC4)c23)c1	x	u	-8%	x	x	x	-8%	-2.4%
O=C(CSc1ncccn1)NC(=O)NCc1ccccc1	-3%	u	u	17%	1%	-2%	8%	2.0%
COc1ccc(CCN(C)C(=O)c2ccc(COc3ccccc3)o2)cc1OC	x	x	-2%	7%	4%	-18%	x	x
Cc1cc(C(=O)COC(=O)c2ccncc2)c(C)n1CCc1ccc(F)cc1	-3%[46.1 µM]	-2%	-16%	2%	1%	x	x	x
CC(C)OC(=O)CSc1nnc(-c2cnccn2)n1C	9%	9%	24%	-10%	-6%	6%	17%	-2.6%
Cc1cc(C)c2nc(N3C(=O)C(O)=C(C(=O)c4ccco4)C3c3ccco3)sc2c1 (stereo unspecified)	-4%[46.1 µM]	-25%[46.1 µM]	1%	9%	-16%	-3%	x	x
OCCCN=c1cc(-c2ccccc2)oc2ccc(Cl)cc12	u	u	9%	-19%	18%	-15%	0%	-4.3%
COc1cccc(CN(C)C(=O)CCc2nnc(-c3ccsc3)o2)c1	u	u	14%	2%	-2%	-7%	x	x
COc1ccccc1N1CCN(C(=O)c2c(-c3ccccc3)noc2C)CC1	u	-18%	-29%	8%	-3%	-60%	u	2.4%
COc1ccc(NC(=O)CSc2ccc(-c3cccs3)nn2)cc1	x	-3%[46.1 µM]	u	x	x	x	-8%	-3.1%
Oc1ccc(-c2cn3c(n2)SCC3)cc1	7%	15%	40%[activator]	1%	2%	-3%	3%	4.4%
Cc1ccc2c(c1)C1CC(C)(O2)N(c2cccc(C(=O)NCc3ccccn3)c2)C(=O)N1 (stereo unspecified)	0%[46.1 µM]	4%[46.1 µM]	-15%	-3%	-6%	-5%	x	x
COc1ccc(OC)c(-c2cc(C(=O)NC3CCCC3)c3ccccc3n2)c1	-1%	-19%	-4%	-14%	u	-2%	x	x
COc1ccc(CNC(=O)CN(Cc2ccco2)C(=O)CNS(=O)(=O)c2ccc(C)cc2)cc1	0%[46.1 µM]	23%[46.1 µM]	28%	4%	-6%	-15%	x	x
Cc1ccc2c(c1)C(=O)C(=O)N2CC(=O)Nc1ccc(N2CCOCC2)cc1	u	1%[46.1 µM]	-6%	-25%	0%	-1%	x	x
CCCc1nc2c([nH]1)C(c1cccnc1)C(C#N)=C(N)O2 (stereo unspecified)	-14%	15%	-18%	11%	8%	11%	1%	2.1%
O=C1Cc2ccccc2C(=O)N1c1ccc(F)cc1Cl	-13%[46.1 µM]	24%	-6%	-24%	1%	18%	x	x
COc1cc(NC(=S)N(C)CCC#N)c(OC)cc1Cl	7%[14.2 µM]	-9%	10%	2%	0%	1%	x	x
O=C(NCN1CCCCC1)c1cnccn1	4%	4%	-4%	2%	-4%	-3%	-21%	1.5%
COc1cc(Br)cc(CN2CCN(C=O)CC2)c1O	-2%	-17%	6%	-4%	1%	1%	-7%	2.0%
O/N=C/c1ccc2cccc(O)c2n1	x	x	27%	-24%	2%	-4%	x	x
CCCOc1ccc(C(=O)ON=C2CCN(C)CC2)cc1	8%	7%	-22%	1%	1%	x	x	x
COC(=O)c1cc(-c2cccc(OC)c2)c2c(=O)[nH]c(=O)n(C)c2n1	-19%[46.1 µM]	-15%[46.1 µM]	-10%	-3%	1%	0%	x	x
O=C(Cn1nc(-c2ccc(Cl)cc2)c2ccccc2c1=O)Nc1cccc(C(F)(F)F)c1	u	-30%[46.1 µM]	-15%	x	x	x	u	-6.4%
COc1ccc(Cl)cc1NC(=O)C1CC(c2ccccc2O)=NO1 (stereo unspecified)	u	-4%	-14%	2%	-1%	18%	x	x
COc1ccc(OC)c(NC(=O)COC(=O)CCc2nc3ccccc3c(=O)[nH]2)c1	u	16%	6%	-9%	1%	x	x	x
Cn1c(=O)c(=O)n(C)c2cc(S(=O)(=O)N3CCCC3C(=O)Nc3cccc(F)c3)ccc21 (stereo unspecified)	u	1%[46.1 µM]	-18%	x	x	x	-11%	-5.2%
COc1ccccc1NS(=O)(=O)c1cc(NC(=O)c2cccs2)ccc1N1CCOCC1	u	-27%	29%	12%	2%	-49%	x	x
CCc1nn(CC(=O)NCCc2ccc(OC)cc2OC)c(=O)c2cc3occc3n12	-21%&10%[46.1 µM]	-13%&-6%[46.1 µM]	2%&6%	0%	u	7%	-10%	-2.1%
Cc1cccc(C(=O)NC(=S)NNC(=O)c2ccc(Cl)cc2)c1	u	u	u	u	-41%	-33%	u	-1.0%
Cc1ccc2c(=O)c(C(=O)c3cccc(Cl)c3)cn(CC(=O)NCc3ccc(F)cc3)c2n1	8%[46.1 µM]	-13%[46.1 µM]	-16%	x	x	x	7%	-2.7%
CCOC(=O)c1cc(-c2c(Cl)cccc2Cl)no1	-9%[46.1 µM]	-1%[46.1 µM]	0%	-3%	-1%	1%	x	x
C/C(=N\Nc1ccc([N+](=O)[O-])cc1[N+](=O)[O-])C(C)(C)C(C(=O)O)C(=O)O	21%	u	-13%	-11%	1%	6%	u	-7.9%
CC(=O)Nc1ccc(S(=O)(=O)Nc2nc3ccccc3nc2Nc2ccccc2)cc1	-2%	4%	-9%	5%	3%	18%	u	-13%
Cc1cc(C)c2nc(/N=C(\N)NC(=O)Nc3ccccc3)nc(C)c2c1	u	u	u	6%	7%	u	u	-23%
COc1ccc(CCNC(=O)Cn2nnc(C(=O)Nc3cccc(C)c3C)c2N)cc1OC	20%[46.1 µM]	-20%[46.1 µM]	-12%	-2%	-1%	6%	x	x
CC1CCCCC1NC(=O)C1CCN(S(=O)(=O)c2ccc3c(c2)CCC(=O)N3)CC1 (stereo unspecified)	5%	x	-15%	1%	0%	-13%	-9%	3.4%
COc1ccc(C(=O)c2sc3nc(-c4ccccc4)ccc3c2N)cc1	-23%	u	7%	14%	1%	-7%	u	-4.3%
CCCOc1ccc(CC2CCC(=O)NC2=O)cc1 (stereo unspecified)	x	x	11µM*	29%	-33%	-1%	2%	-2.9%
COCC(=O)N(C)c1nnc(-c2cnc(C)cn2)s1	0%	5%	27%	28%	-2%	1%	1%	-1.9%
COc1ccc(CN(Cc2ccc(C(=O)O)cc2)C(=S)Nc2ccccc2Cl)cc1OC	-2%[46.1 µM]	3%[46.1 µM]	6%	4%	2%	x	x	x
S=C1NC[C@H](CC2CCCCC2)N1CC1CCCCC1	x	x	-23%	4%	-2%	-3%	x	x
CC1CCN(c2c(NCC3CCC(C(=O)NC4CCCCCC4)CC3)c(=O)c2=O)CC1 (stereo unspecified)	x	x	-11%	-4%	3%	1%	x	x
O=C(C/C(=N/O)c1ccccc1O)C(F)F	1%	1%	-4%	5%	-2%	11%	-9%	3.9%
Cc1cccc(C(=O)O/N=C(\N)c2ccc(Cl)cc2)c1	x	x	62%[activator]	10%	-8%	-36%	x	x
CCC(C)N1CCC(Oc2ccc(C(=O)NCc3ccccn3)cc2)CC1 (stereo unspecified)	u	18%	5%	-9%	9%	16%	x	x
O=C(CCn1c(=O)[nH]c2ccccc2c1=O)NCCSCc1ccccc1	4%	-20%	-5%	3%	4%	x	x	x

Some of the entries so far, comma-delimited:
Molecule,MARV entry inh,Lassa entry inh,StopGo reporter,RE007 growth inh,SARS PLpro yeast,NS1 inh,Cruzain inh noDet,Cruzain inh Det
COc1ccc(CN(Cc2ccc(C(=O)O)cc2)C(=S)Nc2ccccc2Cl)cc1OC,-2%[46.1 µM],3%[46.1 µM],6%,4%,2%,x,x,x
S=C1NC[C@H](CC2CCCCC2)N1CC1CCCCC1,x,x,-23%,4%,-2%,-3%,x,x
CC1CCN(c2c(NCC3CCC(C(=O)NC4CCCCCC4)CC3)c(=O)c2=O)CC1 (stereo unspecified),x,x,-11%,-4%,3%,1%,x,x
O=C(C/C(=N/O)c1ccccc1O)C(F)F,1%,1%,-4%,5%,-2%,11%,-9%,3.9%
Cc1cccc(C(=O)O/N=C(\N)c2ccc(Cl)cc2)c1,x,x,62%[activator],10%,-8%,-36%,x,x
CCC(C)N1CCC(Oc2ccc(C(=O)NCc3ccccn3)cc2)CC1 (stereo unspecified),u,18%,5%,-9%,9%,16%,x,x

Source: PubChem BioAssay (National Center for Advancing Translational Sciences (NCATS))
